AF4-AF9 inh = inhibitors of AF4 peptide binding to AF9, primary screen, biochemical, AlphaScreen, biotin-AF4 peptide, FLAG-AF9, single point; AID 651704, 2012; inhibition, % at 10 µM; hit rate 0.47% among 350,000; Protein AF-9 (Homo sapiens), P42568;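 active = every replicate reaching a set inhibition limit, whatever the replicate mean, cut at about 25% in these data; inconclusive = mean inhibition reaches that limit but some replicates miss it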;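 note: 0% = plate neutral control median and 100% = total signal loss; the record names both 10 and 1 µM as test concentration; the first replicate is given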
Target sequence (P42568 whole entry, looked up): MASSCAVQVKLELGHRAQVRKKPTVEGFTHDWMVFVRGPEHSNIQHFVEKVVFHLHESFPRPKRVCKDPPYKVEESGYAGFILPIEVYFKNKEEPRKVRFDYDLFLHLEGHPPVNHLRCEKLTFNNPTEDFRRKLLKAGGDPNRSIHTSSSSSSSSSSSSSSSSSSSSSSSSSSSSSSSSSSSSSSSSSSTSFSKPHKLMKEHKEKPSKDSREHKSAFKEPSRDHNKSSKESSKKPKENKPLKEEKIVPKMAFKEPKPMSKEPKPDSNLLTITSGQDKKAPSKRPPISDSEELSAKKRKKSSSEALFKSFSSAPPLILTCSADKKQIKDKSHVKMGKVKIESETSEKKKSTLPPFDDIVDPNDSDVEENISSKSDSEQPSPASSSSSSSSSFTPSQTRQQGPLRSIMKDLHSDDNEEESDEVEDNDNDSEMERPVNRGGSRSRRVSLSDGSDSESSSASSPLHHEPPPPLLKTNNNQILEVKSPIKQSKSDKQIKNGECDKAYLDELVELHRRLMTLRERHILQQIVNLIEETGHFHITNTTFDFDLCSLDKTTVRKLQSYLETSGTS
FGF22 binding = binders of human FGF22 protein, primary screen, FGF22 synaptogenesis inhibitor project, biophysical, thermal shift, single point | hit rate 1.5% among 340,000 | recombinant FGF22 thermal shift, SYPRO orange fluorescence; percent of sucrose octasulfate shift, DMSO zero | calls only at 9.99 µM | AID 651658, 2012 | Fibroblast growth factor 22 (Homo sapiens), Q9HCT0;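 active = melting point raised past a set limit in the mean and every replicate; inconclusive = no clear call; three in four hits are not shown here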
RanGTP-Impb inh = inhibitors of RanGTP-importin-beta interaction, primary screen, biochemical, FRET, CFP-Ran, YFP-importin-beta, homogeneous. Ran GTPase (GTP-bound) - importin-beta complex. cell-free CFP-Ran/YFP-importin-beta FRET ratio. inhibition, % (no concentration beside the values). hit rate 1.1% among 300,000. AID 2216, 2009;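 active = most replicates above 15%; inconclusive = exactly half above 15%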;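 note: 0% = DMSO wells and 100% = Ran loaded with GDP instead of GTP; wells of about 40 µL received 100 nL stock; the first replicate is given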
Vif A3G = inhibitors of Vif binding to APOBEC3G peptide, primary screen, biochemical, TR-FRET, GST-Vif 1-94, biotin-A3G peptide, dose response retest (AID 1117319) | Virion infectivity factor (Human immunodeficiency virus type 1 group M subtype B (isolate … | TR-FRET GST-Vif / biotin-A3G peptide binding; higher % means a stronger effect; test concentration not given here; strong numbers were not always called active | inhibition, %; hits with a dose series show IC50 in µM | hit rate 0.57% among 260,000;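 active = above the screen mean plus three standard deviations and confirmed in dose response; inconclusive = results disagree or hit not tested in dose response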;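 note: Vif residues 1-94 fused to GST binding biotinylated APOBEC3G peptide 110-148; 0% = full assay without inhibitor and 100% = GST in place of GST-Vif; retest series ran down from 100 µM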
UCH37 inh = inhibitors of human UCH37 deubiquitinase, primary screen, biochemical, Ub-AMC cleavage, fluorescence; Ubiquitin carboxyl-terminal hydrolase isozyme L5 (Homo sapiens), Q9Y5K5; purified proteasome/UCH37; inhibition, % (concentration not given with the values); hit rate 0.33% among 330,000;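 active = mean of two replicates above 20%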;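 note: 0% = compound-free wells with enzyme and 100% = wells lacking proteasome; stock transfer was 100 nL into about 20 µL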
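Material: Human UCH37 enzyme supplied as purified proteasome complex | Schedule: 30 min compound-proteasome preincubation then 25 min substrate reaction, room temperature | Detection: AMC fluorescence from Ub-AMC cleavage, excitation 355 nm, emission 460 nm | Benchmarks: Wells without proteasome as full block, compound-free enzyme plus substrate as uninhibited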
E coli growth = E. coli growth inhibition, primary screen, OD600; hit rate 0.21% among 330,000; Escherichia coli growth, 23 h; stronger effect = lower value; OD600 absorbance (concentration not given with the values);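 active = OD600 absorbance below the run mean of sample wells minus 3.6 SD, in any replicate, cut at about 0.56 in these data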;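 note: stock transfer was 300 nL into about 60 µL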
HNF4A DNA FP = change in binding of human HNF4A to DNA, primary screen, biochemical, fluorescence polarization, FITC-DNA; activity change, % at 10 µM; hit rate 0.3% among 360,000; 1 h; Hepatocyte nuclear factor 4-alpha (Homo sapiens), P41235; in the data active = activity change above about 30%, passing the limit was not always enough;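 note: controls were the assay level and a saturating level of protein; the project sought stronger binding though the title names inhibitors; some compounds called inactive have numbers as strong as hits; positive values seem to mean higher polarization but the record does not say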
Target sequence (P41235 whole entry, looked up): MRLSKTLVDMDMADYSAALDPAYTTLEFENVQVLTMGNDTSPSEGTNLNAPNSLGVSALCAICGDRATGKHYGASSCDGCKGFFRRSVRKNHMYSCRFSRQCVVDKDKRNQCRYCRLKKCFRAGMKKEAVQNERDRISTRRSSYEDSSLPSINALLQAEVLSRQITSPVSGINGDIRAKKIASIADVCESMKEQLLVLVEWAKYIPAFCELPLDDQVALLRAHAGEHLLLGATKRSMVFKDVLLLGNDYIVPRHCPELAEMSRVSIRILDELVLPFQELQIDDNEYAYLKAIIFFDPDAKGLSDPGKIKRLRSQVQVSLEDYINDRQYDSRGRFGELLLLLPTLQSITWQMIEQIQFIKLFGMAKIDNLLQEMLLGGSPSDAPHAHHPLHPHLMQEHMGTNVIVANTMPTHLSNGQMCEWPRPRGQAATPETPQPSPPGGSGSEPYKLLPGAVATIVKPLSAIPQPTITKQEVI
* = called active by the depositor; i = inactive; ? = inconclusive; . = not tested or not shown. Only part of the results is shown (hit frequency here may not be typical).

Each structure is followed by: AF4-AF9 inh	FGF22 binding	RanGTP-Impb inh	Vif A3G	UCH37 inh	E coli growth	HNF4A DNA FP
> CC(C)(C)N(Cc1ccccc1)C(=O)COC(=O)CCc1c[nH]c2ccccc12
→ .	.	5.8	17%	3.2	0.71	4.4
> CCn1c(=O)c(C(=O)NCCc2ccccc2)c(O)c2ccccc21
→ .	.	-2.4	-6%	-0.9	0.73	-0.5
> CCC(=O)N1CCc2cc(S(=O)(=O)CCC(=O)NCc3ccccc3OC)ccc21
→ -2.9	i	0.1	.	1.3	0.69	2.5
> CC(=O)Oc1ccccc1C(=O)Nc1ccccc1C(=O)N1CCCC1
→ -0.2	i	0.6	.	1.0	0.65	-1.6
> O=S(=O)(NCCC1CC1(Cl)Cl)c1ccc(Cl)cc1 (stereo not drawn)
→ .	i	-0.5	1%	5.1	0.65	-4.7
> COc1ccccc1OCc1ccc(C(=O)Nc2cc(OC)c(OC)c(OC)c2)o1
→ 5.9	i	2.0	.	1.8	0.67	-2.4
> COc1ccccc1-c1ccc(=O)n(CC(=O)Nc2ccc(C(=O)N3CCCC3)cc2)n1
→ .	.	2.2	-5%	2.6	0.68	6.4
> Cc1ccc(Nc2nc(N)nc(CCl)n2)cc1
→ 3.2	i	1.3	22%	3.0	0.68	0.0
> CC(=O)Nc1sc(C)c(C)c1C(=O)OCC(=O)Nc1cccc(C)c1
→ -10	i	.	.	1.8	0.7	0.6
> Cc1cc(NC(=O)CSc2nc(-c3ccc(F)cc3)cs2)no1
→ .	.	-1.6	7%	-2.0	0.68	3.5
> CCOC(=O)c1csc(NC(=O)c2ccc(S(=O)(=O)N3CCCC3)cc2)n1
→ -34	i	-1.1	-3%	1.9	0.66	0.8
> O=C(c1cccs1)c1coc2ccc(O)cc12
→ .	.	-1.8	3%	-0.3	0.66	-2.4
> CCC1=NN(C(=O)Cc2ccc(OC)c(OC)c2)C(O)(C(F)(F)F)C1 (stereo not drawn)
→ .	.	5.3	.	0.1	0.72	0.5
> O=C(CNC(=O)c1ccc(Br)o1)NNC(=O)c1n[nH]c(=O)c2ccccc12
→ -2.9	i	.	?	1.3	0.69	0.7
> CCCCNC(=O)C1CC(c2ccccc2[N+](=O)[O-])=NO1 (stereo not drawn)
→ 3.9	i	1.8	0%	-1.2	0.69	-5.0
> N#C/C(=C\c1cc(O)c(O)c(O)c1)C(N)=O
→ -5.6	i	1.4	22%	14	0.62	1.9
> COc1ccc(NC(=O)NCCN2CCN(c3cccc(Cl)c3)CC2)cc1
→ 0.2	i	0.5	4%	5.6	0.73	-0.5
> Cc1ccc(S(=O)(=O)CCNC(=O)Cc2ccccc2)cc1
→ -1.3	i	0.3	.	2.1	0.71	-9.2
> COC(=O)c1sc2nc(CSc3ccc(Br)cc3)[nH]c(=O)c2c1C
→ -1.2	i	-8.1	.	2.2	0.69	12
> CC(C)[C@H](NC(=O)OC(C)(C)C)c1nnc(SCc2cccc(F)c2)o1
→ .	.	2.4	6%	1.6	0.7	-3.1
> COCCCNC(=S)N1CCN(c2nc(-c3ccc(Cl)cc3)cs2)CC1
→ 0.8	i	.	.	.	.	-0.4
> CCN(C(=O)COC(=O)c1oc2ccccc2c1C)c1c(N)n(Cc2ccccc2)c(=O)[nH]c1=O
→ -4.3	i	.	6%	2.1	0.66	0.9
> S=c1[nH]nc(-c2ccccn2)n1/N=C/c1ccc(Cl)cc1
→ -6.3	i	3.1	2%	.	.	5.1
> COc1cc(NC(=O)c2ccc3c(c2)C(=O)N(CCC(C)C)C3=O)c(C(=O)O)cc1OC
→ -1.4	i	3.7	.	4.5	0.72	-2.5
> Clc1ccc(-c2nnc(-c3ccc4ccccc4c3)o2)cc1
→ -0.5	i	.	-7%	-8.7	0.7	0.7
> CCOC(=O)c1c(C)[nH]c(C)c1C(=O)COC(=O)[C@@H](NC(=O)c1ccccc1OCC)C(C)C
→ .	.	1.2	-1%	4.3	0.7	-0.1
> Cc1cccc(-n2nc3c(c2NC(=O)c2ccco2)CS(=O)(=O)C3)c1C
→ -3.9	i	-1.7	-9%	-0.4	0.72	4.0
> COc1ccc(C(=O)c2sc(Nc3ccccc3)c(C(=O)Nc3ccc(OC)c(OC)c3)c2N)cc1
→ .	.	-4.9	28%	2.5	0.69	0.3
> Cc1cc(C)n2nc(C(=O)OCC(=O)N(CC(C)C)C3CCS(=O)(=O)C3)nc2n1 (stereo not drawn)
→ 0.5	i	.	-3%	4.7	0.67	-1.3
> COc1ccc(-n2cc(CN3CCCC3)c(-c3cccc(F)c3)n2)cc1
→ -0.9	i	1.0	23%	-2.1	0.65	1.1
> CC(C)c1ccc(/C=C2\SC(=O)N(CC(=O)NC3CCS(=O)(=O)C3)C2=O)cc1 (stereo not drawn)
→ 1.5	i	1.0	.	3.2	0.71	-2.3
> N=c1c2c(ncn1Cc1ccco1)Oc1ccc3ccccc3c1C2c1ccccc1 (stereo not drawn)
→ .	.	-0.9	16%	3.2	0.72	5.5
> NC(=O)c1ccc(N2CCCCC2)c(N2C(=O)C3CC=CCC3C2=O)c1 (stereo not drawn)
→ .	.	6.6	7%	3.4	0.68	4.3
> CCC(NC(=O)Cn1cnc2c(=O)n(C)c(=O)n(C)c21)c1ccccc1 (stereo not drawn)
→ .	.	0.1	21%	1.8	0.66	2.0
> CC(=O)c1ccc(NC(=O)CSc2nccn2C)cc1
→ -22	i	-2.8	-6%	4.9	0.65	-0.8
> O=C(NCC1CCCO1)c1ccccc1-c1nc(-c2ccc(F)cc2)no1 (stereo not drawn)
→ .	.	0.7	-3%	-0.1	0.74	6.2
> CCCCCCn1cc(CN2CC(N3CCN(CCN(C)C)CC3)CS2(=O)=O)nn1 (stereo not drawn)
→ 0.2	i	.	.	.	.	0.6
> COc1ccc(/C=N/Nc2ccc(C(F)(F)F)cc2[N+](=O)[O-])cc1O
→ .	.	-3.2	-3%	.	.	0.0
> COc1ccc(C(=O)NC2CCN(S(=O)(=O)c3ccccc3F)CC2)cc1
→ -2.1	i	1.5	.	4.5	0.72	0.9
> COc1cc(OC)cc(-c2nc(-c3ccccc3OC)no2)c1
→ .	.	?	21%	1.4	0.7	-1.8
> Cc1ccc(C(=O)Nc2ccc(N3CCCC3)cc2)cc1
→ -0.2	i	3.2	3%	-123	0.76	-1.7
> COc1ccc2cc3cc(C(=O)N(C)C4CCCCC4)oc3nc2c1
→ .	.	23	.	-99	0.64	-0.8
> Cc1cc(C)c2ccc(Cl)cc2n1
→ 2.5	i	1.6	.	4.5	0.68	-1.0
> O=S(=O)(c1ccc(Cl)cc1)N1CCN(Cc2ccc(O)c3ncccc23)CC1
→ 75*	i	5.9	21%	5.7	0.7	-0.6
> COc1ccc(N2CCN(C(=O)NCc3ccc(OC)c(OC)c3)CC2)cc1
→ 0.5	i	2.9	.	4.1	0.68	-4.0

Just AF4-AF9 inh and RanGTP-Impb inh, for 3 of the compounds above:
mol	AF4-AF9 inh	RanGTP-Impb inh
O=C(c1cccs1)c1coc2ccc(O)cc12	.	-1.8
CCC1=NN(C(=O)Cc2ccc(OC)c(OC)c2)C(O)(C(F)(F)F)C1 (stereo not drawn)	.	5.3
O=C(CNC(=O)c1ccc(Br)o1)NNC(=O)c1n[nH]c(=O)c2ccccc12	-2.9	.

Continued:
Each structure is followed by: AF4-AF9 inh	FGF22 binding	RanGTP-Impb inh	Vif A3G	UCH37 inh	E coli growth	HNF4A DNA FP
> O=C(O)CCCCCn1c(SCC(=O)Nc2ccc(F)cc2)nc2ccsc2c1=O
→ -2.6	i	1.8	-7%	2.1	0.71	-2.9
> COC(=O)C(C#N)C(c1cccnc1)c1c(C)[nH][nH]c1=O (stereo not drawn)
→ 5.0	i	-0.7	-8%	-0.3	0.66	2.9
> CN1/C(=C\C=C2\N=C(c3ccc(F)cc3)OC2=O)C(C)(C)c2ccccc21
→ .	.	-2.6	?	5.5	0.75	148
> O=C(Cc1ccccc1)NCc1ccc(-n2cccc2)cc1
→ -2.1	i	.	.	3.3	0.7	-3.7
> O=C(OCCN1CCCCC1)c1ccccc1Br
→ 3.2	i	-2.6	6%	4.2	0.7	1.9
> CC(C)C[C@H](NS(=O)(=O)c1ccc(Br)cc1)C(=O)O
→ .	.	6.5	12%	-1.7	0.74	2.2
> Cn1nc(C(=O)NCCCN2CCCCC2)c2c1-c1ccccc1S(=O)(=O)C2
→ .	.	-3.1	-4%	2.4	0.72	3.6
> COc1ccc(C(=O)CSc2nc(N)nc(SC)c2C#N)cc1
→ .	.	-0.2	-7%	5.0	0.63	0.9
> O=C(Oc1ccccc1C(=O)N1CCOCC1)c1ccc(Br)cc1
→ .	.	5.3	0%	1.7	0.72	3.5
> CC12CN3CC(C)(CN(C1)C3c1ccc(Cl)cc1Cl)C2=O (stereo not drawn)
→ -7.0	i	0.6	-1%	0.3	0.75	-1.3
> COc1cc(OC)cc(OC2(C)CCN(Cc3ccc(OC(C)C)cc3)C2)c1 (stereo not drawn)
→ -1.8	i	.	.	.	.	-1.3
> COc1cc(NC(=O)c2ccc([N+](=O)[O-])cc2)ccc1NC(=O)C(C)C
→ -0.1	i	0.7	9%	1.4	0.72	-3.8
> COC(=O)C1CCN(S(=O)(=O)c2ccc(NC(C)=O)cc2)CC1
→ .	.	6.2	-3%	6.5	0.74	-1.1
> Cc1cccc(-c2nc(C#N)c(NCc3ccco3)o2)c1
→ 3.6	i	-3.4	-2%	.	.	-3.1
> Cc1cccc(OCC(=O)NNC(=O)Nc2cccc(Cl)c2)c1C
→ .	.	-1.0	-1%	0.4	0.76	0.6
> CCc1nc(N)c(C#N)c(-c2ccco2)c1C
→ .	.	?	4%	-5.7	0.68	0.6
> Cc1ccc(SCCC(=O)NCc2ccncc2)cc1
→ -2.2	i	-2.7	-1%	-0.5	0.65	-1.1
> O=C(COc1ccc(Cl)cc1Cl)c1ccc[nH]1
→ 16	i	3.4	19%	2.4	0.68	2.9
> NC(c1ccccc1)c1csc(NC(=O)Nc2ccc(OC(F)(F)F)cc2)n1 (stereo not drawn)
→ 1.8	i	.	.	.	.	12
> CC1(C(=O)N(Cc2ccccc2)Cc2ccccc2)CC1(Br)Br (stereo not drawn)
→ .	.	-0.9	.	3.6	0.69	-2.7

Bioassay records (PubChem BioAssay)
